Bioassay records deposited in PubChem BioAssay by ICCB-Longwood Screening Facility, Harvard Medical School.
Ab BasE inh: inhibitors of Acinetobacter baumannii siderophore enzyme BasE | purified BasE, fluorescence polarization binding displacement | inhibition, % (test concentration not listed) | 84,000 compounds, 0.1% hits;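 active = both replicates above 25% with normal brightness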;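 also: 0% = negative plate control signal and 100% = positive plate control signal; stock transfer was 100 nL into about 30 µL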
KSHV LANA nucl: inhibitors of KSHV LANA binding to nucleosomes | AID 720717 | z-score (test concentration not listed) | FITC-LANA1-23 / chicken nucleosome fluorescence polarization; stronger effect = lower value | 51,000 compounds, 0.3% hits;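 active = both repeat wells score below -2 in polarization z-score versus plate sample wells, excluding overly bright wells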;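 also: 100 nL library stock added to about 30 µL; numbers are from one replicate; some results filed as inactive read as strong as hits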
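Material: Purified chicken nucleosomes with FITC-labelled LANA N-terminal peptide (1-23) | Reagent: 50 nM FITC-LANA1-23 probe | Medium: TEN-BT buffer, pH 7.5 | Times: 10–45 min incubation at room temperature | Detection: Fluorescence polarization | Replication: Duplicates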
* marks the source's active call; other numbers are inactive results; & = joins results of further samples. An excerpt; the hit share may differ from the screen's.

For COc1ccc(NC(=O)C(CC(C)C)NS(=O)(=O)c2ccc3c(c2)oc(=O)n3C)cc1 (stereo not given) the results were Ab BasE inh -0.7 and KSHV LANA nucl -0.77.
For Cc1ccc2nc(SCc3ccccc3C#N)[nH]c2c1 the results were Ab BasE inh 1.8 and KSHV LANA nucl -0.22.
For CCNc1ccc(OC)cc1 the results were Ab BasE inh 1.0 and KSHV LANA nucl 0.11.
Screening Cc1cccc2cc(C#N)c(NCCCNS(=O)(=O)c3ccccc3)nc12 returned Ab BasE inh 0.5 and KSHV LANA nucl 0.076.
For Cc1cc(NC(=O)Nc2ccccc2)n(-c2ccccc2)n1 the results were Ab BasE inh -0.9.
CN(Cc1nc(-c2ccccc2)no1)C(=O)C1CCCCC1 was read as Ab BasE inh -0.8 and KSHV LANA nucl 0.42.
For Cc1cccc(C(=O)OCC(=O)N2CCCc3ccccc32)c1 the results were Ab BasE inh 0.6.
`Cn1c(CNC2CCCCC2)c(C#N)c2ccccc21` gave Ab BasE inh -2.4 and KSHV LANA nucl 1.1.
Screening CCc1ccccc1N(CC(=O)N1CCC(Cc2ccccc2)CC1)S(C)(=O)=O returned Ab BasE inh 0.7.
For O=C(Oc1coc(CSc2nnc(NC(=O)C3CC3)s2)cc1=O)c1cccs1 the results were Ab BasE inh 3.3 and KSHV LANA nucl -0.15.
`Cc1nnc(SCC(=O)NCCc2ccccc2)[nH]c1=O` gave Ab BasE inh -1.7 and KSHV LANA nucl 1.2.
Screening O=c1cc(-c2ccccc2)[nH]c2nc3ccccc3n12 returned Ab BasE inh 2.2 and KSHV LANA nucl -0.3.
C/C(=N\c1nnc(Sc2nc3cc(Cl)ccc3s2)s1)N(C)C was read as Ab BasE inh 1.6.
For N#C/C(=C\c1cn[nH]c1-c1cccc(Br)c1)C(=O)O the results were Ab BasE inh 0.2.
Screening COc1ccc(CC(C(=O)O)N2C(=O)c3ccccc3C2=O)cc1 (stereo not given) returned Ab BasE inh 1.0 and KSHV LANA nucl -0.51.
Cc1ccc(-c2cc(-c3ccc4c(c3)OCO4)c(C#N)c(N)n2)cc1 was read as Ab BasE inh -1.0 and KSHV LANA nucl 0.43.
`[O-]c1n[n+](-c2ccc(Cl)cc2)cc2ccccc12` gave KSHV LANA nucl -0.36.
O=C(Cn1c(=O)oc2ccccc21)N1CCc2ccccc21 was read as Ab BasE inh 1.0 and KSHV LANA nucl 0.33.
For Cc1c(C(=O)NN=Cc2ccc(-c3ccc(Cl)c(C(=O)O)c3)o2)sc(N)c1C#N the results were Ab BasE inh 1.7 and KSHV LANA nucl -0.17.
`NC(=O)C1(N2CCCCC2)CCN(C2CC(=O)N(CCc3ccccc3)C2=O)CC1` (stereo not given) gave Ab BasE inh 0.5.
Screening NC(=O)COC(=O)c1cccnc1SCC(=O)Nc1ccccc1OC(F)F returned Ab BasE inh -1.2.
For COc1ccc(-c2ccnc3c(C#N)cnn23)cc1 the results were KSHV LANA nucl 0.33.
Screening COCC(C)NC(=O)Cn1nc(C)c(NC(=O)c2cc(-c3ccc(OC)c(OC)c3)no2)c1C (stereo not given) returned Ab BasE inh -1.1 and KSHV LANA nucl -1.
O=C(O)CCN1C(=O)NC2(CCCCC2)C1=O was read as Ab BasE inh 1.0.
For COc1ccc(NCc2nnc3n2CCCCC3)cc1 the results were Ab BasE inh -1.4.
Cc1cc2c(cc1N)OCCO2 was read as Ab BasE inh 0.3 and KSHV LANA nucl -0.69.
Screening NN=C1c2ccccc2-c2ccccc21 returned Ab BasE inh -0.7 and KSHV LANA nucl 0.13.
For Cc1ccc(-c2noc(C3CCCN(S(=O)(=O)c4ccc5c(c4)OCCO5)C3)n2)cc1 (stereo not given) the results were Ab BasE inh -1.1 and KSHV LANA nucl -0.41.
Screening N#CC(C#N)=CNc1cccc(NC(=O)c2cccc(Cl)c2)n1 returned Ab BasE inh 2.2 and KSHV LANA nucl 0.9.
Screening COc1ccc(OCC(=O)NC2Sc3c(OC)ccc(OC)c3N2C)cc1 (stereo not given) returned Ab BasE inh -3.8.
`CC(C)Nc1cccnc1N1CCN(C(=O)c2cc3cc(NS(C)(=O)=O)ccc3[nH]2)CC1` gave KSHV LANA nucl -0.59.
For Cn1c(C(C#N)C(=O)Cc2c(F)cccc2Cl)nc2ccccc21 (stereo not given) the results were Ab BasE inh 0.4.
Screening C=CC(=O)Nc1ccc(-c2nc3ccc(NC(=O)C=C)cc3[nH]2)cc1 returned Ab BasE inh 0.9 and KSHV LANA nucl -0.33.
For O=c1[nH]c2cc3c(cc2cc1CN(CCO)C(=S)Nc1cccc(Cl)c1)OCO3 the results were Ab BasE inh -0.7 and KSHV LANA nucl -0.04.
`Cc1ccc2c(COC(=O)c3nc(-c4ccccc4)oc3C)cc(=O)oc2c1` gave Ab BasE inh -0.5.
CC(NC(=O)c1ccccc1)c1n[nH]c(=S)n1C (stereo not given) was read as Ab BasE inh -0.3 and KSHV LANA nucl 0.097.
For CN1CCC[C@@H]1CCO[C@](C)(c1ccccc1)c1ccc(Cl)cc1 the results were Ab BasE inh -2.3&-0.9 and KSHV LANA nucl 0.084&0.31&0.073&-0.38.
Fc1ccc(-c2[nH]ncc2CN2CCN(Cc3ccccc3)CC2)cc1 was read as Ab BasE inh -0.3.
`O=C(CN1CCC(C(=O)Nc2ccccc2)CC1)NN1C(=O)NC2(CCCCC2)C1=O` gave Ab BasE inh 0.9.
For CC1=NN(Cc2ccccc2Cl)C(=O)C1 the results were Ab BasE inh 1.2.
Screening CC(=O)N1CCN(C(=O)c2sccc2-c2ccccc2)CC1 returned Ab BasE inh 1.7.
`CC(C)N(Cc1nnc(-c2ccc(Cl)cc2)o1)C(=O)C1COc2ccccc2O1` (stereo not given) gave Ab BasE inh -3.0.
For COc1ccccc1N(Cc1cc2ccccc2[nH]c1=O)C(=O)C(C)(C)C the results were Ab BasE inh 0.5 and KSHV LANA nucl -0.67.
Screening Cc1ccc2cc(CN(Cc3ccccc3)S(C)(=O)=O)c(=O)[nH]c2c1 returned Ab BasE inh -0.2 and KSHV LANA nucl -1.8.
Screening O=S(=O)(NCCSc1ccccc1)c1ccc2c(c1)OCCO2 returned Ab BasE inh -2.3.
CC(C)c1ccc(NC(=O)c2cc(F)cc3c2OCOC3)cc1 was read as Ab BasE inh 0.5.
Screening CCCN(CCC)S(=O)(=O)c1ccc2c(c1)CCN2C(=O)CC returned Ab BasE inh 1.4 and KSHV LANA nucl 0.17.
`CC1(NCC(=O)N2CCN(S(=O)(=O)c3ccc4ccccc4c3)CC2)CCS(=O)(=O)C1` (stereo not given) gave Ab BasE inh 0.9.

Brought forward from above: two compounds, followed by the next part.
Screening CCCN(CCC)S(=O)(=O)c1ccc2c(c1)CCN2C(=O)CC returned Ab BasE inh 1.4 and KSHV LANA nucl 0.17.
`CC1(NCC(=O)N2CCN(S(=O)(=O)c3ccc4ccccc4c3)CC2)CCS(=O)(=O)C1` (stereo not given) gave Ab BasE inh 0.9.
CC1SC2(C(=O)Nc3ccccc32)N(c2ccccc2)C1=O (stereo not given) was read as Ab BasE inh 0.4 and KSHV LANA nucl 0.24.
Screening O=C(Cn1c(=O)oc2ccccc21)NC1CCN(Cc2ccccc2)CC1 returned Ab BasE inh -2.2 and KSHV LANA nucl -0.22.
C#CCOC(=O)Nc1ccc(OCC(F)(F)F)nc1 was read as Ab BasE inh 0.2 and KSHV LANA nucl 0.59.
`CCC1CCC(=NNC(=O)CNc2ccc(OC)cc2)CC1` (stereo not given) gave Ab BasE inh 3.5.
Screening COc1cccc(C(=O)CCN2CCC(c3ccccc3)C2)c1 (stereo not given) returned Ab BasE inh 0.7.
Screening CCOC(=O)C1(c2ccccc2)NC(c2ccc(O)c(OC)c2)C2C(=O)N(C)C(=O)C21 (stereo not given) returned Ab BasE inh -0.6 and KSHV LANA nucl 0.37.
Screening Cc1ccc(SCC(=O)N2CC(=O)Nc3ccccc32)cc1 returned Ab BasE inh -2.0 and KSHV LANA nucl -0.53.
For COc1ccc(-c2noc(CN(C(=O)C(C)(C)C)C(C)C)n2)cc1 the results were Ab BasE inh -3.7 and KSHV LANA nucl 2.1.
For CCSC(=S)NC1CCS(=O)(=O)C1 (stereo not given) the results were Ab BasE inh -0.1.
For O=C(CSc1ncccn1)N1CCN(C(=O)c2ccco2)CC1 the results were Ab BasE inh 2.7.
Cc1nc(SCc2nnc(-c3ccccc3)o2)c(C(N)=O)c(C)c1C was read as Ab BasE inh 0.2.
COc1cccc(NC(=O)N2C3CCC2CC(O)(c2cccnc2)C3)c1 (stereo not given) was read as Ab BasE inh -0.4 and KSHV LANA nucl -1.

Three compounds picked at random from the list so far:
Screening Cc1ccc(SCC(=O)N2CC(=O)Nc3ccccc32)cc1 returned Ab BasE inh -2.0 and KSHV LANA nucl -0.53.
C#CCOC(=O)Nc1ccc(OCC(F)(F)F)nc1 was read as Ab BasE inh 0.2 and KSHV LANA nucl 0.59.
Screening O=C(Cn1c(=O)oc2ccccc21)NC1CCN(Cc2ccccc2)CC1 returned Ab BasE inh -2.2 and KSHV LANA nucl -0.22.

The results go on:
O=C(Nc1ccc(S(=O)(=O)N2CCCCCC2)cc1)C1CC(=O)N(c2ccccc2)C1 (stereo not given) was read as Ab BasE inh -2.1 and KSHV LANA nucl -1.2.
`COc1ccc(-c2noc(CN3CCC(C(=O)NCCC4=CCCCC4)CC3)n2)cc1OC` gave Ab BasE inh -1.0.
Screening O=C(O)CSCC(=O)N1CCN(c2ncccn2)CC1 returned Ab BasE inh -1.8 and KSHV LANA nucl 0.17.
`CCn1c(C)nc2cc(C(=O)N=Nc3c(O)[nH]c4ccccc34)ccc21` gave Ab BasE inh -0.6.
For Cc1ccc(NC(=O)Cn2nc(C(N)=O)c3ccccc3c2=O)cc1 the results were Ab BasE inh -1.0.
`COc1ccc(C2C(C#N)=C(N)N(c3ccccc3)C3=C2C(=O)CC(C)(C)C3)cc1OC` (stereo not given) gave Ab BasE inh 0.5 and KSHV LANA nucl -0.27.
Cc1oc(-c2cc(Cl)ccc2Cl)cc1-c1nn2c(C)nnc2s1 was read as Ab BasE inh -0.4 and KSHV LANA nucl -1.1.
Screening [O-][n+]1onc2cc(Cl)ccc21 returned Ab BasE inh 1.0 and KSHV LANA nucl -0.019.
CCOC(=O)c1ccc2c(c1)nc(C(C)O)n2CC(=O)Nc1ccc(N(CC)C(C)C)cc1 (stereo not given) was read as Ab BasE inh 0.6.
For O=C1c2ccccc2C(=O)N1CSc1nnc(Cc2cccs2)n1CCc1ccccc1 the results were Ab BasE inh -2.2.
`CS(=O)(=O)c1ccc(Cl)c(NC(=O)c2ccc3c(=O)n4c(nc3c2)CCC4)c1` gave Ab BasE inh 0.4.
`Cc1nn(-c2ccccc2)c2[nH]c(=O)c(C#N)c(-c3cccs3)c12` gave Ab BasE inh 0.1.

Structures listed so far with a COOH group (5):
For N#C/C(=C\c1cn[nH]c1-c1cccc(Br)c1)C(=O)O the results were Ab BasE inh 0.2.
Screening COc1ccc(CC(C(=O)O)N2C(=O)c3ccccc3C2=O)cc1 (stereo not given) returned Ab BasE inh 1.0 and KSHV LANA nucl -0.51.
For Cc1c(C(=O)NN=Cc2ccc(-c3ccc(Cl)c(C(=O)O)c3)o2)sc(N)c1C#N the results were Ab BasE inh 1.7 and KSHV LANA nucl -0.17.
O=C(O)CCN1C(=O)NC2(CCCCC2)C1=O was read as Ab BasE inh 1.0.
Screening O=C(O)CSCC(=O)N1CCN(c2ncccn2)CC1 returned Ab BasE inh -1.8 and KSHV LANA nucl 0.17.

Next section.
Screening Cc1ccc(CN(C)C(=O)c2ccc(N3C(=O)c4ccccc4C3=O)cc2)o1 returned Ab BasE inh 0.3.
For CN1CCN(S(=O)(=O)c2cccc(S(=O)(=O)c3ccc(Cl)c(Cl)c3)c2)CC1 the results were Ab BasE inh 3.7 and KSHV LANA nucl 0.035.
`CC1(C)Cc2ccccc2C(Nc2ccc(S(N)(=O)=O)cc2)=N1` gave Ab BasE inh 0.0 and KSHV LANA nucl -0.36.
C/C(=N\N=C(N)N)c1ccc(-n2ccnc2)cc1 was read as Ab BasE inh -2.1.
Screening Cc1ccccc1C(=O)N(C)Cc1ccccc1 returned Ab BasE inh 1.5 and KSHV LANA nucl 0.17.
Screening O=S(=O)(Nc1ccccn1)c1ccc(Oc2ccccc2)cc1 returned Ab BasE inh -0.1 and KSHV LANA nucl 0.48.
Screening CCC1CN(C(=O)Nc2ccccc2)c2ccccc2O1 (stereo not given) returned Ab BasE inh -0.5 and KSHV LANA nucl -0.4.
`O=C1c2cccc3cccc(c23)N1Cc1ccc(F)cc1Cl` gave Ab BasE inh 1.5.
`O=C(Nc1ccc(S(=O)(=O)Nc2ccccc2)cc1)N1CCCC1` gave Ab BasE inh 4.3 and KSHV LANA nucl -0.85.
COc1ccc(NC(=O)C2CCCCC2)cc1OC1CCCC1 was read as Ab BasE inh -0.7.
Screening CCOc1ccc(NS(=O)(=O)c2ccc3[nH]cc(C(=O)NC(C)CC)c(=O)c3c2)cc1 (stereo not given) returned Ab BasE inh -0.3 and KSHV LANA nucl 0.61.
O=C(/C=C/C(=O)Nc1cccc(O)c1)Nc1cccc(O)c1 was read as Ab BasE inh -3.8 and KSHV LANA nucl 0.15.
O=C(CNc1ccccc1)N/N=C/c1ccc(F)cc1 was read as Ab BasE inh 1.2 and KSHV LANA nucl -0.17.
Nc1nn(S(=O)(=O)c2ccc(Br)cc2)cc1-c1ccccc1 was read as Ab BasE inh -0.5 and KSHV LANA nucl 1.2.
For Cc1nc2sccn2c(=O)c1S(=O)(=O)N1CCC(Cc2ccccc2)CC1 the results were Ab BasE inh -1.2 and KSHV LANA nucl -0.16.
CC1CCc2c(sc3nc(SCC(=O)Nc4c[nH]c(=O)[nH]c4=O)[nH]c(=O)c23)C1 (stereo not given) was read as Ab BasE inh 0.6 and KSHV LANA nucl -0.92.
